High-throughput results deposited in PubChem BioAssay by Broad Institute.
Tgondii IFNg – T. gondii growth inhibition under IFN-gamma | Toxoplasma gondii growth in IFN-gamma-treated host cells; stronger effect = lower value; reference of the scale not given here | activity change, negative = inhibition, %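 (about 20 µM by stock and volumes)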 | 69,000 tested, 3.8% active;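 active = below -70%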;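 note: host cells are HeLa cells infected with Toxoplasma gondii; parasite growth read as luciferase light; one replicate is shown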
Numbers without * were called inactive; i = inactive; & = joins results of further samples; ! = not confirmed by another sample. Only part of the results is shown; count on the stated rates, not on these rows.

SMILES	Tgondii IFNg
Cc1cc(C(=O)Nc2nc3c(s2)CCc2ccccc2-3)no1	96
Cc1nnc(CN(C)C(=O)c2cc(CN(C)Cc3ccccc3)on2)o1	-2
CC(Cn1cncn1)C(=O)NC1CCN(CC2(c3ccccc3F)CCCC2)CC1 (stereo unspecified)	41
CC(=O)Nc1cccc(NC(=O)C(=O)NCCc2sc(-c3ccccc3)nc2C)c1	23
Cc1nc(N)sc1C(=O)N/N=C/c1ccco1	-46
O=C(C1CCCCC1)N1CCC(c2cc(=O)[nH]c(-c3ccccn3)n2)C1 (stereo unspecified)	-7
CCOc1ccsc1C(=O)N1CCC2OCCCC2(COC)C1 (stereo unspecified)	-38
C[C@@H]1CN([C@H](C)CO)C(=O)c2cc(NC(=O)CCC(F)(F)F)ccc2O[C@@H](C)CCCCO[C@@H]1CN(C)C(=O)c1ccncc1	376
O=C1CCCCCN1Cc1ccccc1	-8
CCCNC(=O)N1CC2(C1)CN(C(=O)Nc1ccc(F)cc1)[C@@H](CO)c1[nH]c3cc(OC)ccc3c12	145
CCC1(c2ccccc2)OC(/C=C/c2ccccc2)Nc2ccccc21 (stereo unspecified)	114
CCc1nc(C)c(C(=O)N2CCC(O)(c3ccccc3)C2)s1 (stereo unspecified)	-2
O=C(Cc1ccc(F)cc1)N1CC[C@H]2[C@@H]1CCN2c1ncccn1	29
CCc1nc(C)c(C(=O)Nc2cnc3n2CCCC3)o1	-3
Cn1ccnc1-c1nccn1-c1cccc(CN2CCCC2)c1	1
C/C(NC(=O)c1cccs1)=C1\C(=O)C[C@@H]2[C@H]1C2(C)C	3
O=C(C[C@H]1CC[C@H]2NC[C@@H](O)COC[C@@H]2O1)Nc1nccs1	-15
Cc1ccc(Nc2ncnc3c2CCN(C(=O)CN(C)C)CC3)cc1	4
COc1ccc(NC(=O)c2ccc(-c3ccc(-c4noc(C)n4)cc3C)cc2)cc1OCCN(C)C	-77*!
CNc1cc(NS(=O)(=O)c2ccc(N)cc2)nc(NC)n1	8
Cc1cc(S(=O)(=O)NCc2cc(CC(C)C)no2)ccc1F	17
CC=Cc1ccc2n(c1=O)C[C@H]1[C@H](CO)[C@@H](C(=O)N3CCOCC3)[C@@H]2N1CC1CCCC1 (mixture of isomers)	-2
Cc1ccoc1C(=O)N(Cc1ccccc1)CC(C)CO (stereo unspecified)	-6
Cc1cnc(C(=O)N2CCCC(Cc3ccccn3)C2)cn1 (stereo unspecified)	-26
CN1CCN(C(=O)C[C@@H]2CC[C@H]3[C@@H](COC[C@H](O)CN3Cc3cccc(-c4ccncc4)c3)O2)CC1	5

Later entries
SMILES	Tgondii IFNg
Cn1ccnc1SCCNS(=O)(=O)NCc1ccccc1	2
CN(C)C1CC2(CCN(C(=O)c3cncnc3)C2)C1 (stereo unspecified)	32
CCOCC1CN(C(=O)C2=CCCC2)Cc2cnn(CC)c21 (stereo unspecified)	-6
Cc1nc(CC(=O)Nc2cnn(CC(=O)Nc3cccc(C(F)(F)F)c3)c2)cs1	16
Cc1ccc2[nH]c(=O)c(-c3nc(-c4ccc5c(c4)OCO5)no3)c(O)c2c1	335
Cc1ncsc1CCC(=O)N1CCOC(C(F)(F)F)C1 (stereo unspecified)	-48
CCNC(=O)OCC(CC)NC(=O)OCC(C)C (stereo unspecified)	-5
Cc1cccc(COC[C@]23CCC[C@@H]2CN(C(=O)c2cccs2)C3)n1	10
FC(F)(F)c1cccc(N2CCN(c3nc(-c4ccc(Cl)cc4)nc4ccccc34)CC2)c1	-22
COc1cccc(-c2ccc(C3[C@H]4CNC[C@@H]3N4C(=O)Nc3ccc4c(c3)OCO4)cc2)c1 (stereo partly specified)	34&12
CCCCNC(=O)CCC1N=C2c3ccccc3N=C(SCc3ccc(C)cc3)N2C1=O (stereo unspecified)	-46
O=C(CC1[C@H]2CN(C(=O)c3ccco3)C[C@@H]12)NCc1ccco1 (stereo partly specified)	0
Cc1cc(S(=O)(=O)NCc2ccc3c(c2)OCO3)ccc1-n1cnnn1	-8
CN(CCC(=O)N1CCOC(c2ccc(Cl)cc2)C1)S(C)(=O)=O (stereo unspecified)	14
C/C=C/c1ccc2c(c1)[C@H]1[C@H](CCN1S(=O)(=O)c1cn(C)cn1)[C@H](CO)N2	21
Nc1ncnc(Nc2ccc(F)c(Cl)c2)n1	-4
CCc1cn[nH]c1C1CCCN(C(=O)c2cccnc2NC)C1 (stereo unspecified)	7
O=C(c1ccc(C2CCCO2)s1)N1CCc2nc[nH]c2C1 (stereo unspecified)	-11
CC1=CCC2C(=O)N(C3CCCCC3)C(=O)C2C1 (stereo unspecified)	-39
Cc1ccc(NC(=O)CN2CC(C(=O)O)CC2=O)c(F)c1 (stereo unspecified)	2
CC(=O)Oc1c(-c2ccccc2)sc2ccccc12	82
CCN(Cc1nc(COC)no1)C(=O)c1ccc2cc[nH]c2c1	1
O=C(c1ccncc1)N1C[C@H]2[C@@H](c3ccccc31)[C@@H](CO)N2Cc1ccccc1F	-40
CCCCC1C=CCN1C(=O)c1cc(C(C)C)[nH]n1 (stereo unspecified)	-10
COCCC1COC2(CCN(c3ccc(F)cc3)CC2)C1 (stereo unspecified)	-15

Reprinted at random: 7 records from the list
SMILES	Tgondii IFNg
Cc1cccc(COC[C@]23CCC[C@@H]2CN(C(=O)c2cccs2)C3)n1	10
FC(F)(F)c1cccc(N2CCN(c3nc(-c4ccc(Cl)cc4)nc4ccccc34)CC2)c1	-22
Cc1nc(CC(=O)Nc2cnn(CC(=O)Nc3cccc(C(F)(F)F)c3)c2)cs1	16
C/C=C/c1ccc2c(c1)[C@H]1[C@H](CCN1S(=O)(=O)c1cn(C)cn1)[C@H](CO)N2	21
Cc1ccc2[nH]c(=O)c(-c3nc(-c4ccc5c(c4)OCO5)no3)c(O)c2c1	335
Cn1ccnc1SCCNS(=O)(=O)NCc1ccccc1	2
CN(CCC(=O)N1CCOC(c2ccc(Cl)cc2)C1)S(C)(=O)=O (stereo unspecified)	14

Gathered by group, the entries above containing a furan ring, fused or not.
SMILES	Tgondii IFNg
Cc1nc(N)sc1C(=O)N/N=C/c1ccco1	-46
Cc1ccoc1C(=O)N(Cc1ccccc1)CC(C)CO (stereo unspecified)	-6
O=C(CC1[C@H]2CN(C(=O)c3ccco3)C[C@@H]12)NCc1ccco1 (stereo partly specified)	0

Taken from above:
Entry of `CCc1nc(C)c(C(=O)N2CCC(O)(c3ccccc3)C2)s1` (stereo unspecified) under Tgondii IFNg: -2
Entry of `CCN(Cc1nc(COC)no1)C(=O)c1ccc2cc[nH]c2c1` under Tgondii IFNg: 1
Entry of `Cc1cc(S(=O)(=O)NCc2ccc3c(c2)OCO3)ccc1-n1cnnn1` under Tgondii IFNg: -8

(more compounds)
SMILES	Tgondii IFNg
CCOc1ccccc1-c1nc(CN(c2cccc(OC)c2)S(=O)(=O)c2ccccc2)c(C)o1	-24
COc1cc(Br)c(Nc2nc(-c3c(C)nc4ncccn34)cs2)c(Br)c1	-42
Cc1ccsc1-c1ccc(CNC(=O)CC2(CC(=O)O)CCCCC2)cc1	14
COc1cc(N2CCCn3cnc(COC(C)C)c3C2)ncn1	-49
COc1cccc2c1OCCCN(C(=O)c1ccc(C#CC(C)(C)O)o1)C2	1
COc1cc(N2CCC3O[C@@H](C(=O)NC(C)C)CC32)ncn1 (stereo partly specified)	9
Cc1nonc1-c1csc(NC(=O)Cc2csc(-c3ccccc3)n2)n1	-6
Cc1cccc(C(=O)N2CCc3ncnc(C4CCOC4)c3CC2)n1 (stereo unspecified)	191
CC(C)(C)S(=O)N1Cc2cc(C(=O)NCc3ccc(Oc4ccccc4)cc3)nc(-c3cccc(-c4cccc(F)c4)c3)c2[C@@H]1CCO (stereo partly specified)	-68
CN1C(=O)c2cc(NC(=O)c3cccc(Cl)c3)ccc2OC[C@@H]2O[C@H](CC(=O)NC3CCCCC3)CC[C@H]21	-11
O=C(Nc1ccccc1)[C@H]1C[C@@H]2CN(c3ncccn3)C[C@H]1O2	-7
Cn1c(Cc2nc(-c3cnccn3)no2)nnc1SCC(=O)c1ccc(Cl)cc1	6
Cc1nc2ccccc2c(=O)n1CC(=O)NCc1nc(Cc2ccccc2)no1	-3
COc1ccc(-c2nc(Cn3nnc(-c4nc(-c5ccccc5)no4)c3C)c(C)o2)cc1	-58
Cc1ccc(-c2nc(CN3CCC(C(=O)N4CCC(O)(c5ccc(Cl)cc5)CC4)CC3)no2)cc1	4
CC(C)(CN1CCOCC1)CN1CCN(Cc2cccc(F)c2)CC1	-6
CC(C)CN1CC[C@H]2OCC[C@@H](C(=O)N3CCCO3)[C@@H]2C1	32
CC(C)(C)SCCSCCS(=O)(=O)CCSCCSC(C)(C)C	28
C=CCN1CCN(C(=O)c2cccn2C)Cc2ccc(C)nc21	64
Cc1ccc(NC(=O)c2ccc3ccc(N4CCN(C)CC4)n3c2)cc1C	-73*
Fc1cc(Oc2ccc(C(F)(F)F)cn2)cc(F)c1CN1CCCC1	51
COC(=O)c1ccc(N2CCN(C)CC2)c(NC(=O)c2ccco2)c1	-13
CCc1ccc2c(c1)c1nnc(SCc3nnc(-c4ccccc4)o3)nc1n2C	5
CCCn1cc(C(=O)NC2CC3(CCOCC3)Oc3ccccc32)c(C)n1 (stereo unspecified)	6
Cc1cccc(N2CCN(c3nc(-c4ccc(Cl)cc4)nc4ccccc34)CC2)c1C	21

Remaining list, next part:
SMILES	Tgondii IFNg
O=C(CSc1nnc(-c2ccc(O)cc2)o1)c1cc2ccccc2oc1=O	19
Cc1cccnc1CC(C)Nc1cc(N2CCOCC2)nc(N)n1 (stereo unspecified)	6
CN1c2ccc(C3=CCCCC3)cc2[C@@H]2[C@@H](CCN2C(=O)Cc2ccccn2)[C@H]1CO	-35
CN(C)CC(=O)N[C@H]1CC[C@@H](CCNC(=O)C2CCC2)O[C@@H]1CO	-8
Cc1nnsc1-c1nnc(C2CCCCC2)o1	-48
COCC(=O)Nc1ccc2c(c1)OC[C@@H](C)N(C(=O)CN1CCOCC1)C[C@@H](C)[C@H](OC)CN(C)C2=O	-27
Cn1nnc2c1C(COCC1CC1)CN(C(=O)CS(C)(=O)=O)C2 (stereo unspecified)	-4
COc1ccccc1N1CCN(CC(=O)Nc2cn(C)nc2C)C(C)C1=O (stereo unspecified)	2
Cc1nn(C)cc1-c1ccnc(N(C)Cc2ccsc2)n1	12
O=C(CC1(C(=O)O)CCCC1)N1CCCC1	-6
CCN1C[C@@H]2CCN(C(=O)c3ccnnc3)CC[C@H]2S1(=O)=O	1
CCc1nc(N)sc1C(=O)N(CC)Cc1ccccc1F	-1
N[C@@H](C(=O)O)[C@@H](OCc1ccccc1)C(=O)O (racemic)	26
CCc1cnc(N2[C@@H](C#N)[C@@H](c3ccc(-c4cccc(F)c4)cc3)[C@@H]2CO)s1	-39
CCN(Cc1cc2ccc(OC)cc2[nH]c1=O)Cc1nccn1C	-2
CC1(C)Cc2nc(-c3ccncc3)ncc2C(NC(=O)C(C)(C)C)C1 (stereo unspecified)	44
COc1ccc(CN2[C@H](CO)[C@H]3c4ccccc4NC[C@H]32)cc1	35
CC(NC(=O)C(c1ccc(Cl)cc1)N(C)C)c1nc2ccccc2s1 (stereo unspecified)	-14
CSc1cccc(NC(=O)C2CCN(S(=O)(=O)c3ccc4[nH]c(=O)ccc4c3)CC2)c1	i
CN(C)CC1(O)CCCN(C(=O)CCc2nc3cccnc3n2C)C1 (stereo unspecified)	-2
Cn1cc(C[C@H]2[C@@H](O)CCN2C(=O)NCc2ccccc2)cn1	-43
Cc1ccc(-c2n[nH]c(Cc3ccccc3)n2)cc1N1CCNC1=O	-3
CCCCN(CC)c1nc(-c2ccc(OC)cc2)nc2ccccc12	-5
Cc1n[nH]c(C)c1CC(=O)N[C@H]1C[C@H]2CN(C)CCN2C1	-4
CCOC(=O)Cc1nn(Cc2ccc(Br)cc2F)c(=O)c2ccccc12	-8

The last five compounds of the part before come first, to join the parts.
SMILES	Tgondii IFNg
Cn1cc(C[C@H]2[C@@H](O)CCN2C(=O)NCc2ccccc2)cn1	-43
Cc1ccc(-c2n[nH]c(Cc3ccccc3)n2)cc1N1CCNC1=O	-3
CCCCN(CC)c1nc(-c2ccc(OC)cc2)nc2ccccc12	-5
Cc1n[nH]c(C)c1CC(=O)N[C@H]1C[C@H]2CN(C)CCN2C1	-4
CCOC(=O)Cc1nn(Cc2ccc(Br)cc2F)c(=O)c2ccccc12	-8
O=C(NCCc1c[nH]c(=O)[nH]c1=O)c1scc2c1CCCC2	7
C[C@@H]1CCn2cc(nn2)COC[C@H](C)NC1=O	-31
CN(C)C(=S)NCCC1=CCCCC1	13
Cc1ccccc1NC(=O)c1cccc(S(=O)(=O)Oc2ccccc2Br)c1	74
O=C(NCc1ccc2c(c1)OCO2)[C@H]1[C@H](CO)[C@H]2Cn3c(cccc3=O)[C@@H]1N2Cc1cncnc1	25
Cc1ccc(F)cc1-c1ccc(N)nc1	-26
CSc1nc(C)c(CC(=O)Nc2cnn(Cc3ccc(F)cc3)c2)c(=O)[nH]1	-26
COc1ccc(CN2CCC=C(C3CCCCN3C(C)=O)C2)cc1 (stereo unspecified)	-42
OC[C@@H]1Nc2ccc(C#Cc3ccc(F)cc3)cc2[C@H]2[C@@H]1CCN2Cc1ccc2c(c1)OCO2	-50
COc1ccc(OC)c(NS(=O)(=O)c2ccc3c(c2)n(C)c(=O)n3C)c1	32
CC(C)CN1CCO[C@H]2CCN(c3cnccn3)CC[C@H]21	5
O=C(Nc1cccc(F)c1)N1CCCCN2[C@H](C1)[C@@H](c1ccc(C#Cc3cccnc3)cc1)[C@@H]2CO	-26
C=CCN1C[C@H]2CN(Cc3ccccn3)CCC[C@@]2(C(=O)OCC)C1	-5
COC(=O)Cn1cc(CN2CCCC2c2cc(C(C)C)on2)c2cc(OC)ccc21 (stereo unspecified)	2
Cc1nccn1CCCC(=O)N1CCc2c(nc(N(C)C)[nH]c2=O)C1	1
CNC[C@H]1OCCCC[C@H](C)Oc2ccc(NS(=O)(=O)c3ccc(F)cc3)cc2C(=O)N([C@H](C)CO)C[C@@H]1C	169
